Source: PubChem
NS1 inh: influenza NS1 inhibition. S. cerevisiae slowed by influenza A NS1, growth recovery by OD600. Potency, µM (doses to about 46.1 µM), for inactives: at the highest dose activity, positive = more growth. 270,000 compounds, 0.4% hits. AID 2326; note: actives are rising curves; nearly all actives have a fitted effect of over 50% in size
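Growth recovery, yeast-based: influenza A NS1 expressed in S. cerevisiae causes slow growth, and suppressors are detected by OD600. The parent strain without NS1 is used as positive control.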
Cruzain inh Det: blocks cruzain activity in presence of Triton detergent; 200,000 compounds, 0.43% hits; AID 1478; Potency, µM, inactives show max response, negative = inhibition, usual class: inhibitors; purified cruzain, Z-FR-AMC fluorescence, 0.01% Triton; active = well fitted curve in the direction sought with a large enough effect; inconclusive = small, poorly fitted or top-dose-only effect, or another doubt; inactive = no such curve, though single readings can be large; an effect the other way counts as inactive or inconclusive;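 note: plate controls were neutral wells for no effect and buffer without enzyme for full effect; nearly all actives have a fitted effect of over 40% in size; top concentration of the series not given in the record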
Target sequence (P25779 123-467 limits assumed): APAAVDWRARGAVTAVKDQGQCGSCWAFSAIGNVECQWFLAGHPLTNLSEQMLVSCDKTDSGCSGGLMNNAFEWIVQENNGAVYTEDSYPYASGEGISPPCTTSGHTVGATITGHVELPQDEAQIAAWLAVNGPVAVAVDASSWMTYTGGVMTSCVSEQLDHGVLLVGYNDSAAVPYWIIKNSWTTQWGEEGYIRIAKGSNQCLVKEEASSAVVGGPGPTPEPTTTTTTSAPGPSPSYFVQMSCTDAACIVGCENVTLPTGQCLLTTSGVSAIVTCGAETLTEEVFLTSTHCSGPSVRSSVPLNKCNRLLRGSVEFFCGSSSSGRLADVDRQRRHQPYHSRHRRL
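Cruzain (1.5 nM) preincubated 15 min at RT with compound in 100 mM sodium acetate pH 5.5, 5 mM DTT, 0.01% Triton X-100. Reaction started with 2 uM Z-FR-AMC; AMC fluorescence (ex 360/em 450 nm) change over 60 s gave rate.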
StopGo reporter: lowers the luciferase signal of an FMDV 2A StopGo reporter; human cells with a luciferase reporter of 2A StopGo recoding; control for the full effect not named in the record; Potency, µM (series often up to 57.9 µM), for the others: at the highest dose signal change, negative = less light; 410,000 compounds, 1.2% hits; active = well fitted falling curve with a large enough effect; inconclusive = small, poorly fitted or top-dose-only effect; inactive = no such curve, though single readings can be large or run the other way; tested in HEK293T cells; note: % is set by controls: 0 for no effect and ±100 for the full control effect; nearly all actives have a fitted effect of over 45% in size; luciferase light after 4 h
MARV entry inh: Marburg virus entry inhibition; 300,000 compounds, 1.8% hits; Potency, µM (top dose mostly 37.8 µM), for inactives: top-dose activity change, negative = inhibition, hits mostly inhibitors; Marburg virus pseudotyped entry inhibition, cell reporter; control for the full effect not named in the record; about a third of the inactives were read at about 46 µM; active = well fitted inhibition curve with a large enough effect; inconclusive = small, poorly fitted or top-dose-only effect, or effect the other way; inactive = flat fitted curve, though single readings scatter; tested in HEK293 cells; about a fifth of its hits are not listed in these tables; note: % is set by controls: 0 for no effect and ±100 for the full control effect; luciferase read-out
RE007 growth inh: less growth of the S. pombe RE007 Vpr strain | S. pombe RE007 Vpr strain, BacTiter-Glo ATP luminescence, 24 h; control for the full effect not named in the record | Potency, µM (titrated, usually from 92.2 µM), for the others: at the top dose activity change, negative = less growth | 360,000 compounds, 0.21% hits; active = well fitted falling curve with a large enough effect; inconclusive = small, poorly fitted or top-dose-only effect; inactive = no such curve, though single readings can be large or run the other way;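 note: % is set by controls: 0 for no effect and ±100 for the full control effect; nearly all actives have a fitted effect of over 50% in size; the assay follows cell death caused by Vpr and the record does not say whether a fall means rescue or toxicity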
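Fission yeast strain RE007, carrying one chromosomally integrated HIV-1 vpr copy, was seeded at OD 0.01 in PMG+AL medium with 23 nL pinned compound. After 24 h at 30 °C and 99% humidity, viability was read by BacTiter-Glo luminescence.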
Cruzain noTriton: cruzain (T. cruzi) inhibition without detergent. P25779. purified cruzain, Z-FR-AMC fluorescence, no detergent. Potency, µM, for inactives: max response, negative = inhibition, hits mostly inhibitors. 200,000 compounds, 2.3% hits. AID 1476; active = well fitted curve in the direction sought with a large enough effect; inconclusive = small, poorly fitted or top-dose-only effect, or another doubt; inactive = no such curve, though single readings can be large; an effect the other way counts as inactive or inconclusive;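 note: plate controls were enzyme without inhibitor for no effect and buffer without enzyme for full effect; nearly all actives have a fitted effect of over 40% in size; top concentration of the series not given in the record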
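Detergent-free condition (0.00005% Triton X-100) in acetate buffer pH 5.5 with DTT. 1.5 nM enzyme and compound were pre-mixed 15 min, then 2 uM Z-FR-AMC substrate added; reaction progress from fluorescence change between first and third reads (60 s).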
Lassa entry inh: inhibitors of Lassa virus binding or cell entry. Lassa virus pseudotype entry inhibition, cell reporter; control for the full effect not named in the record. Potency, µM (highest dose often 37.9 µM), for the others: at the top dose activity change, negative = inhibition, usual class: inhibitors. 300,000 compounds, 1.2% hits. AID 540256; active means well fitted inhibition curve with a large enough effect; inconclusive means small, poorly fitted or top-dose-only effect, or effect the other way; inactive means flat fitted curve, though single readings scatter; tested in HEK293 cells; note: % is set by controls: 0 for no effect and ±100 for the full control effect; nearly all actives have a fitted effect of over 50% in size; luciferase read-out
SARS PLP yeast: blocks SARS-CoV papain-like protease in a yeast assay; S. cerevisiae expressing SARS-CoV PLpro, growth rescue; control for the full effect not named in the record; 330,000 compounds, 0.19% hits; AID 485353; Potency, µM (top dose mostly 32.9 µM), for inactives: at the highest dose activity, positive = growth rescue; note: 0% is about no effect; nearly all actives have a fitted effect of over 55% in size; growth read by luminescence after 48 h
* hit, by the source's call; ? = inconclusive; / = not tested or not shown; & = joins results of further samples; [ ] = dose if it differs, or a comment. Unless noted, calls come from the whole dose curve; as a rule, active means well fitted rising curve with a large enough effect; inconclusive means small, poorly fitted or top-dose-only effect; inactive means no such curve, though single readings can be large or run the other way. Potency is the fitted concentration of half-maximal effect.

SMILES	NS1 inh	Cruzain inh Det	StopGo reporter	MARV entry inh	RE007 growth inh	Cruzain noTriton	Lassa entry inh	SARS PLP yeast
O=C(C1CC(=O)N(c2ccccc2)C1)N1CCN(c2ccccc2)CC1 (centres undefined)	20%	/	-20%	?	7%	/	-4%	4%
CC1SC(C)C(=O)N(CC(=O)NC2CCCCC2)C1=O (centres undefined)	/	/	11%	-9%[46.1 µM]	-15%	/	-4%	3%
Nc1ccc2[nH]c(=S)[nH]c2c1	/	/	-1%	21%[46.1 µM]	-5%	/	?	/
COc1ccc(-c2cc(C(=O)Nc3cccc(O)c3)on2)cc1OC	/	-11%	41%[activator]	/	/	2%	?	/
COc1ccccc1OC(C)C(=O)N1CC(=O)Nc2ccccc21 (centres undefined)	-1%	/	-2%	3%[46.1 µM]	-12%	/	-20%[46.1 µM]	-8%
C=CCNC(=O)/C(C#N)=C/c1ccc2c(c1)OCCO2	/	/	64%[activator]	2%[46.1 µM]	17%	/	1%	-1%
COc1ccc(CCNCCN2CCOCC2)cc1	-3%	/	4%	/	7%	/	/	1%
COC(=O)[C@@]1(Cc2ccc(OC)cc2)[C@@H]2C(=CC(=O)[C@H]2CC(=O)C(=O)N2CCCC2)CN1C(=O)c1ccccc1	-16%	-0.8%&-3.1%	16µM*	?	-10%	?	?	-5%
CCc1sc(C(=O)NCc2cc(C)n(C)n2)cc1Br	-9%	4.6%	-12%	1%	16%	0%	-27%	-6%
CN(C(=O)CN1C(=O)/C(=C/c2ccccc2Cl)SC1=S)C1CCS(=O)(=O)C1 (centres undefined)	4%	/	-2%	/	10%	/	/	2%
CC(C)(C)NNC(=S)Nc1cccc(C(F)(F)F)c1	-48%	/	1%	17%[46.1 µM]	-8%	/	11%	0%
CSc1nsc(SC)c1C(=O)NCCNS(=O)(=O)c1ccc(C)cc1	2%	-3.9%	-13%	5%&5%	10%	-10%	3%	-6%
CC(=O)NS(=O)(=O)c1ccc(NC(=O)CSc2ccc(C)cc2)cc1	3%	/	31%[activator]	?	-10%	/	11%[46.1 µM]	0%
COCCCn1c(SCC(=O)Nc2cccc(C)n2)nnc1-c1ccco1	1%	1.9%	-8%	28%[46.1 µM]	0%	-18%	-12%	5%
NC(=O)c1ncc(C(F)(F)F)cc1Oc1cccc(C(F)(F)F)c1	9%	5.0%	-19%	-6%[46.1 µM]	15%	4%	8%	-7%
Cn1c2c(c(=O)n(C)c1=O)CN(Cc1ccc3c(c1)OCO3)CN2	-2%	4.3%	-25%	?	17%	-3%	6%	3%
COc1ccccc1/C=C/C(=O)Nc1ccc2c(c1)CCC2	6%	-7.2%	-12%	?	-7%	?	-22%	-24%
Cc1ncc(CO)c2cc(C(=O)Nc3ccccc3Cl)c(=Nc3cccc(C(N)=O)c3)oc12	-1%	/	?	/	5%	/	/	0%
COC(=O)C1=NN(C(=O)c2ccc(C)cc2)C(O)(c2ccc(Cl)cc2)C1 (centres undefined)	-84%	-4.8%	/	17%	-19%	-10%	-5%	6%
CCN(CC)S(=O)(=O)c1ccc2[nH]cc(C(=O)NCCc3ccccc3)c(=O)c2c1	-3%	-1.5%&-4.4%	?	?	-2%	?	0.22µM*	4%
Cc1cccc(C(=O)N2CCNC(=O)C2CC(=O)Nc2cccc(Cl)c2)c1 (centres undefined)	5%	/	-3%	/	-2%	/	/	-7%
Cc1ccc(-n2[nH]c(C)c(C=Nc3ccc(S(=O)(=O)Nc4nccs4)cc3)c2=O)cc1C	8%	-9.6%	11%	-24%	?	?	7%	-39%
CCc1ccc(-c2ccc3nnc(SCC(=O)Nc4cccc(C(C)=O)c4)n3n2)cc1	/	-0.7%	0%	/	/	-3%	-2%[46.1 µM]	/
COc1ccc(-c2csc(-c3[nH]cnc3N)n2)cc1	/	/	0%	?	1%	/	-8%	-2%
CC(C)N(C(=O)CSc1ncnc2sc(-c3ccccc3)cc12)C(C)C	2%	-2.9%	-22%	-6%	3%	1%	3%	14%
O=C(O)c1cc(-c2ccc(-c3ccc(F)cc3)o2)nc2ccccc12	-9%	/	29%	/	-13%	/	/	-2%
CSc1cccc(NC(=S)NC(=O)CCc2ccccc2)c1	-10%	/	16%	/	-3%	/	/	-1%
COc1cccc(N2CCN(C(=O)c3ccc(CS(=O)Cc4ccccc4Cl)o3)CC2)c1 (centres undefined)	-1%	/	-16%	-5%[46.1 µM]	4%	/	?	1%
O=C(c1ccc(F)cc1)C1CCN(C(=O)c2ccccc2)CC1	3%	/	-24%	?	-18%	/	3%	-9%
Cc1c(C(=O)Nc2ccccc2F)sc2ncn(CC(=O)N3CCCCC3)c(=O)c12	6%	/	-3%	/	10%	/	/	-3%
COc1ccccc1OCCCC(=O)Nc1nnc(C2CCCO2)s1 (centres undefined)	5%	/	-22%	-24%	8%	/	24%	0%
O=C(CCc1ccc(S(=O)(=O)N2CCOCC2)cc1)N/N=C/c1ccc(F)cc1F	/	/	15%	?	11%	/	?	3%
CCOc1ccccc1NC(=O)Cn1c(=O)oc2cc(S(=O)(=O)NCc3ccccc3)ccc21	/	-1.8%	0%	/	/	7%	-20%[46.1 µM]	/
O=C1CSc2ccccc2N1	/	/	16%	12%	6%	/	8%	/
O=C(COC(=O)c1cc([N+](=O)[O-])ccc1NCCO)Nc1cccnc1Cl	/	/	6%	14%[46.1 µM]	5%	/	4%[46.1 µM]	-4%
CCN(CC)C(=O)N1CCC(NC(=O)c2ccc(C(C)(C)C)cc2)CC1	-9%	-1.6%	?	0%	-12%	?	1%	2%
CC(NC(=O)c1ccc(Cl)cc1)C(=O)NC1=NCCS1 (centres undefined)	-47%	1.0%	-7%	-22%	-17%	6%	26%	-17%
CCn1c(SCC(=O)Nc2cc(C)on2)nc2sc3c(c2c1=O)CCCC3	?	-1.0%	/	?	-11%	-18%	?	-15%
CC1CCCN(c2ccc(F)cc2N)C1 (centres undefined)	/	/	-6%	?	-28%	/	?	-5%
CCOC(=O)c1c(C)oc2c1c(C(c1ccncc1)N1CCOCC1)c(O)c1ccccc12 (centres undefined)	-104%	-4.2%	0%	?	40µM*	?	?	-37%
Cn1cc(Br)c(C(=O)NC2CCCCC2)n1	0%	1.2%	4%	?	13%	-2%	-7%	0%
O=[N+]([O-])c1cc(C=NN2CCCCCC2)ccc1Cl	/	/	32%[activator]	?	-19%	/	14%	/
COCc1cc(C)nc(SCc2ccccc2Cl)c1C#N	-8%	/	-8%	/	-20%	/	/	-6%
CCOC(=O)c1cnn2c(C(F)F)cc(C3CC3)nc12	-4%	-0.4%	-5%	4%	0%	-22%	3%	9%
CCOc1ccc2oc(=O)cc(CN3CCN(Cc4ccc(F)cc4)CC3)c2c1	/	-2.1%	-28%	?	/	5%	25%[46.1 µM]	/
NC(=O)C1CCCN(C(=O)CN2C(=O)NC(c3ccccc3)(c3ccccc3)C2=O)C1 (centres undefined)	/	/	-3%	21%[46.1 µM]	-8%	/	1%	1%
O=S(=O)(/N=C(/NS(=O)(=O)c1ccccc1)c1ccccc1)c1ccccc1	-1%	/	6%	-1%[46.1 µM]	1%	/	-10%	1%
CCOc1ccccc1OCC(=O)O	?	-0.2%	7%	3%	6%	-8%	-12%	2%
O=[N+]([O-])c1ccc(N2CCCCCC2)c(S(=O)(=O)N2CCCCC2)c1	8%	-1.6%	-2%	-30%	6%	-5%	-24%	-9%
Cc1c(Br)c([N+](=O)[O-])nn1CCCC(=O)Nc1sc2c(c1C(N)=O)CCC(C)C2 (centres undefined)	9%	-9.7%	-16%	?	-10%	?	7%	18%
Cc1ccc(C(=O)COC(=O)CCC(=O)Nc2ccc(Oc3cc(C)ccc3C(C)C)cc2)cc1	/	-9.6%	2%	-18%[46.1 µM]	/	25%	17%[46.1 µM]	/
COc1ccc(-c2cc(C(=O)N3CCN(c4cccc(C)c4C)CC3)c3ccccc3n2)cc1OC	/	/	-23%	?	-3%	/	?	0%
CCN(C(=O)CSc1nnc2ccccn12)c1c(N)n(Cc2ccccc2)c(=O)[nH]c1=O	2%	0.2%	2%	8%	8%	7%	?	8%
Cc1cc(Cl)ccc1OCC(=O)NCC(c1cccs1)N1CCOCC1 (centres undefined)	/	/	32µM*	?	-24%	/	?	-8%
COc1cc(O)c(C(CC(=O)N2CCCC2)c2ccc3c(c2)OCO3)c(OC)c1 (centres undefined)	3%	/	-3%	/	12%	/	/	2%
O=C(Nc1nnc(SCc2ccccc2)s1)c1cc2c(s1)CCCC2	7%	-2.1%	21%	11%	-18%	?	18%	12%
CCO/N=C1\C(=O)N(c2ccccc2)c2ccccc21	/	/	-19%	-7%[46.1 µM]	6%	/	-18%	-1%
CCNC(=O)CN1c2cccc3cccc(c23)S1(=O)=O	2%	2.2%	-4%	-2%	0%	-1%	?	1%
COC(=O)C1=C(N)c2ccccc2C1(C#N)c1ccccc1 (centres undefined)	-1%	-4.3%	?	-11%	-9%	7%	-4%	11%
CC1CCN(S(=O)(=O)c2nnc(NC(=O)c3ccccc3Br)s2)CC1	-2%	/	-14%	/	43%	/	/	2%

Later entries.
SMILES	NS1 inh	Cruzain inh Det	StopGo reporter	MARV entry inh	RE007 growth inh	Cruzain noTriton	Lassa entry inh	SARS PLP yeast
COc1ccc(OCc2n[nH]c(=S)n2N)cc1	/	/	3%	9%[46.1 µM]	-21%	/	-3%[46.1 µM]	0%
COc1ccc(NC(=O)c2ccc(COCC(F)(F)C(F)F)cc2)cc1	-5%	-7.0%	22%	-8%	25%	-3%	-16%	-6%
Cc1ccccc1CCNC(=O)c1cc2cc(S(=O)(=O)N3CCCCC3)ccc2n1C	/	-0.1%	?	/	/	-9%	-13%[46.1 µM]	/
CCCCNC(=S)NCc1ccc2[nH]c(C)cc2c1	1.4µM*	-0.7%	-12%	9%	-8%	-10%	?	25%
CC(C)(C)c1nc2ccccc2c2nnc(SCC(=O)Nc3nc4ccccc4s3)n12	5%	-0.4%	?	?	1%	?	?	-1%
Cc1ccc(-c2nn(CCC(N)=O)c(=O)c3ccccc23)cc1	-3%	-1.8%	6%&-16%	?	17%	15%	-1%&-2%[46.1 µM]	0%
